GALR2 agonist – agonists of human galanin receptor 2 (GALR2); O43603; activation, %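 (tested at 5 µM)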; 0.48% of 140,000 active; GALR2-expressing cells, agonist activation read-out;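 active means above mean plus 3 SD of all compounds, about 5% in these data, not always enough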;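 further: 0% = vehicle buffer wells and 100% = reference agonist at full effect; tested in CHO reporter cells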
RGS16-Gao HTS – RGS16-Galphao interaction regulator (human); bead-based flow cytometry RGS16-Galphao binding, fluorescence; actives lie on both sides; binding response (% of control), % at 10 µM; 0.38% of 220,000 active; AID 1441;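 active means below 25% or above 175%, edge rows of some plates excepted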;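 further: Galphao activated by GDP with aluminum fluoride before binding; 100% = wells without compound and 0% = beads without RGS; some results beyond the cut were filed as inactive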
Insulin prom inh – TRM-6 insulin promoter activity inhibition; TRM-6 cells (human fetal islet line), insulin promoter-eGFP reporter, imaging; reporter expression induced with tamoxifen; inhibition, % at 2 µM; 0.9% of 130,000 active;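 active means inhibition above the mean plus 3 SD, with well images judged a real hit on visual review, cut at about 60% in these data, passing the limit was not always enough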
PKD1 kinase inh – PKD1 (human) kinase inhibition; Q15139; PKD1 kinase fluorescence polarization assay; inhibition, %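 (about 10 µM by stock and volumes)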; 0.056% of 200,000 active;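 active means inhibition of 50% or more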;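 further: controls were vehicle for no effect and a reference inhibitor for full effect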
Target sequence (Q15139 whole entry, looked up): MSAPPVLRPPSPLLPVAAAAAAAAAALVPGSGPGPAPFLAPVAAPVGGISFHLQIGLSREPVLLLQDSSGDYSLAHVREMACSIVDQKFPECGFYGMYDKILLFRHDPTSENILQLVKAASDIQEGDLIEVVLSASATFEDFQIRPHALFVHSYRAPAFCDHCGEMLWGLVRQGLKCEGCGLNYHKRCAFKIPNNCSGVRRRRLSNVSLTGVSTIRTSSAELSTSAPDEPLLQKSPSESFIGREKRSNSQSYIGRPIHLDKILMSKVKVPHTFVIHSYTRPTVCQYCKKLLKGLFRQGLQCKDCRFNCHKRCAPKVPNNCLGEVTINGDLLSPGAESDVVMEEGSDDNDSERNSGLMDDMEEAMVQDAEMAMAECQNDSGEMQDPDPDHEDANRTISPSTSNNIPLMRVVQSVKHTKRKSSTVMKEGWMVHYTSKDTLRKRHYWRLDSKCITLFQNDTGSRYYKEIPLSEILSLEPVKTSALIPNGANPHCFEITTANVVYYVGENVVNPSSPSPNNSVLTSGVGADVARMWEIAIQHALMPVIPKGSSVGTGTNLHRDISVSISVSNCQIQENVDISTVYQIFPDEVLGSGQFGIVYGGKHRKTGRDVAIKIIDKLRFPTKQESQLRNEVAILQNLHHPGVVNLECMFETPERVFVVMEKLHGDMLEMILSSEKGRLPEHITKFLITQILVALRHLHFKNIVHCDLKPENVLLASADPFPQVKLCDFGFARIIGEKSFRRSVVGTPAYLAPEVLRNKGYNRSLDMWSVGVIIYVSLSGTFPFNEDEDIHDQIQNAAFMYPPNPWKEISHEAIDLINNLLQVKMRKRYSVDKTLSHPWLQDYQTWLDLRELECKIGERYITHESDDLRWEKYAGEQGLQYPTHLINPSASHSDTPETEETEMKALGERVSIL
HSV replic up – HSV replication enhancement | HSV replication augmentation in cells, fold increase | maximum fold increase | 0.005% of 220,000 active | AID 1956;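 active means peak rise of 1.5-fold or more in the series; tested in PC3 cells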;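 further: first round at 10 µM; read as green reporter fluorescence; hits show the peak of a series up to 25 µM; 1 = signal of infected wells without compound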
Insulin prom inh cell count – further read-out of Insulin prom inh, marked with its call; normalized cell count, %; measured here: cell count, toxicity; reference of the scale not given here;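 cells exposed to compound for 48 h; stained nuclei by imaging scaled within each plate; lower means fewer cells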
HSV replic up primary fold – also measured in HSV replic up; calls as there; fold increase; compound at 10 µM; measured here: primary screen fold increase 10 uM; tested in PC3 cells;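 GFP signal in the first replicate; 1 = infected wells without compound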
* hit, by the source's call; i = inactive; / = no result given; [ ] = another dose, or the depositor's remark.

cpd	molecule	GALR2 agonist	RGS16-Gao HTS	Insulin prom inh	Insulin prom inh cell count
1	CCC(=O)Nc1ccccc1-c1nnn(CC(=O)N2c3ccccc3CC2C)n1 (stereo unspecified)	-0.4	97	43	42
2	Cc1nc2ccc(S(=O)(=O)NCC(=O)N3CCOCC3)cc2s1	-0.5	102	64	60
3	CC1=CC(=O)CC2C1(C)CCC(C)C2(C)CCC(C)CC(=O)O (stereo unspecified)	/	96	/	/
4	COC(=O)[C@H](C)NC(=O)NCc1ccc(S(N)(=O)=O)cc1	/	104	/	/
5	CC1CN(C(=O)C(C)Sc2nc3ccccc3s2)CC(C)O1 (stereo unspecified)	-2.1	98	21	104
6	O=C(N/N=C/c1ccco1)C1COc2ccccc2O1 (stereo unspecified)	1.4	100	/	/
7	CC(C)CC(COCc1ccc(Cl)cc1)N1CCN(C(=O)c2cccc(C(F)(F)F)c2)CCC1=O (stereo unspecified)	-1.3	109	20	77
8	CC(C)c1ccc(N(CC(=O)NCc2ccc(F)cc2)C(=O)c2csnn2)cc1	/	109	/	/
9	CCCCCc1c(C)nc(Nc2ccc(F)cc2)[nH]c1=O	-4.1	103	0	61
10	O=C(c1ccc([N+](=O)[O-])cc1)N1CCN(C(=O)c2cccs2)CC1	-1.5	101	-13	88
11	COc1cccc(NC(=S)N(CCN(C)C)C(C)c2ccco2)c1 (stereo unspecified)	-1.0	103	18	145
12	CN(C)c1ccc(CNC(=O)C2CCN(S(=O)(=O)c3ccc4c(c3)CCC(=O)N4)CC2)cc1	-2.3	111	/	/

cpd	PKD1 kinase inh	HSV replic up	HSV replic up primary fold
1	-6	i	0.46
2	-2	i	0.95
3	/	i	0.92
4	/	i	0.88
5	-5	i	0.66
6	11	i	0.83
7	-8	i	0.83
8	1	i	0.78
9	-2	i	0.93
10	-10	i	1
11	-6	i	0.89
12	-6	i	0.97

Next compounds.
cpd	molecule	GALR2 agonist	RGS16-Gao HTS	Insulin prom inh	Insulin prom inh cell count
13	Cc1nc(N)sc1-c1csc(Nc2ccccc2)n1	-3.2	102	-117	95
14	CCOC(=O)c1sc(NNC(=O)c2ccc(C)cc2)nc1C	/	98	/	/
15	CCCCC(CCC(=O)Nc1ccc(C(=O)OCC)cc1)C(=O)O (stereo unspecified)	-1.7	90	20	48
16	CC(=O)C(Sc1nc(N2CCOCC2)nc(N2CCOCC2)n1)C(=O)Nc1ccccc1 (stereo unspecified)	-1.4	98	69	123
17	O=C(Nc1cccc(/C=C/c2nc3ccccc3c(=O)[nH]2)c1)c1ccccc1Cl	/	97	/	/
18	O=C(NCCCn1ccnc1)c1cccc(S(=O)(=O)NCc2ccccc2)c1	/	107	-400	101
19	Cn1c(NC(=O)C2c3ccccc3Oc3ccccc32)cc(=O)n(C)c1=O	-1.7	101	/	/
20	Cc1ccc(C2=NN=C(NC(=O)CSc3nnc4c5ccccc5n(C)c4n3)SC2)cc1	-1.1	52	-31	92
21	Fc1ccc2nc(Nc3nc4c(F)cccc4s3)sc2c1	0.5	99	/	/
22	COc1cccc(NC(=O)CSc2nc3c(c(-c4ccco4)c2C#N)CCCC3)c1	0.0	98	7	149
23	C/C(=N\NC(=O)c1ccc(CSc2nc(C)cc(C)n2)cc1)c1ccco1	/	105	26	78
24	O=C(OCC(=O)N1CCN(c2ccccc2)CC1)c1ccc[n+]([O-])c1	/	101	47	116

cpd	PKD1 kinase inh	HSV replic up	HSV replic up primary fold
13	-2	i	1
14	/	i	0.9
15	-3	i	1
16	-5	i	1
17	/	i	0.59
18	-6	i	0.95
19	1	i	0.93
20	-2	i	1.1
21	12	i	0.95
22	6	i	1.1
23	-8	i	0.99
24	6	i	1

(listing goes on)
cpd	molecule	GALR2 agonist	RGS16-Gao HTS	Insulin prom inh	Insulin prom inh cell count
25	CCC(=O)Nc1ccc(C(=O)Nc2cccc(OC)c2)cc1	-1.5	108	-493	90
26	Cc1cc(N=Nc2ccccc2)c(NCC(O)C(O)C(O)CO)cc1C (stereo unspecified)	/	100	82*	104*
27	CCOc1ccc(N2CC(C(=O)NCCCN3CCOCC3)CC2=O)cc1 (stereo unspecified)	-0.4	104	6	80
28	Cc1cc(=O)n(C)c(=O)n1CCCCOc1ccc([N+](=O)[O-])cc1	/	109	/	/
29	Cc1cc(C)nc(N2CCCC(C(=O)NNC(=O)c3ccncc3)C2)n1 (stereo unspecified)	/	106	/	/
30	Cc1cc(NC(=O)c2c(F)c(F)c(F)c(F)c2F)no1	-1.0	110	-218	52
31	Cc1ccc2c(c1)C(=C(C#N)C#N)C(=O)N2CCN1CCCCC1	/	102	/	/
32	CCCCNC(=O)COC(=O)c1cc(C)nc2ccccc12	-1.1	108	-9	81
33	O=C(C1=C[C@@H](c2ccc(C(F)(F)F)cc2)C[C@@H](OCc2ccc(CO)cc2)O1)N1CCN(Cc2ccc3c(c2)OCO3)CC1	/	102	/	/
34	Cc1c(C(=O)OC/C(O)=C(\C#N)c2nc3ccccc3[nH]2)oc2ccc(Br)cc12	/	101	/	/
35	O=C(Nc1nnc(CSCc2ccccc2F)s1)c1cccc([N+](=O)[O-])c1	-2.2	65	7	77
36	NC(=O)C1CCN(CC(=O)Nc2cccnc2Cl)CC1	/	100	/	/

cpd	PKD1 kinase inh	HSV replic up	HSV replic up primary fold
25	6	i	0.92
26	1	i	0.69
27	-7	i	1
28	3	i	0.98
29	/	i	0.94
30	-3	i	0.7
31	/	i	1
32	-7	i	0.77
33	3	i	0.69
34	/	i	0.95
35	3	i	0.94
36	5	i	1

Two records picked at random from the list so far:
cpd	molecule	GALR2 agonist	RGS16-Gao HTS	Insulin prom inh	Insulin prom inh cell count
27	CCOc1ccc(N2CC(C(=O)NCCCN3CCOCC3)CC2=O)cc1 (stereo unspecified)	-0.4	104	6	80
36	NC(=O)C1CCN(CC(=O)Nc2cccnc2Cl)CC1	/	100	/	/

cpd	PKD1 kinase inh	HSV replic up	HSV replic up primary fold
27	-7	i	1
36	5	i	1

(continued)
cpd	molecule	GALR2 agonist	RGS16-Gao HTS	Insulin prom inh	Insulin prom inh cell count
37	CCN(CC)C(=O)C(=O)c1cn(CCOc2ccccc2)c2ccccc12	/	100	16	98
38	O=Nc1c(O)[nH]c2c(F)cccc12	-0.5	72	-58	65
39	O=C(O)/C=C/C(=O)c1ccc(O)cc1	/	99	/	/
40	Cc1cc(=O)[nH]c(-c2ccc(Cl)cc2)n1	/	93	/	/
41	NC(=O)c1cc(-c2ccccc2)sc1NC(=O)Cc1ccc(S(=O)(=O)N2CCOCC2)s1	0.0	98	-48	52
42	Cn1c(SCc2nc(-c3ccccc3)no2)nnc1-c1cccs1	-2.1	/	28	129
43	N#Cc1ccccc1NC(=O)CC1CCCCC1	-2.2	107	-19	85
44	Cc1ccccc1Nc1nc(N)nc(COC(=O)c2cccc(S(=O)(=O)NCc3ccccc3)c2)n1	5.0*	100	-31	78
45	COC(=O)c1ccc(NC(=O)C2CCN(S(C)(=O)=O)CC2)cc1	-1.7	101	15	179
46	Cc1ccc(C(=O)c2ccccc2C(=O)OCC(=O)NC(C)(C)C)cc1	/	102	/	/
47	CC1(C)Cc2noc(N)c2C(C)(C)N1OC(=O)c1ccco1	-3.0	97	0	131
48	CCOC(=O)c1nn(-c2ccccc2C)c2nc(-c3ccc(C)cc3)c(C#N)c(=O)n12	-1.1	103	10	91

cpd	PKD1 kinase inh	HSV replic up	HSV replic up primary fold
37	-5	i	0.91
38	-5	i	0.8
39	/	i	0.98
40	/	i	1
41	0	i	0.91
42	-3	i	0.9
43	-2	i	0.93
44	4	i	0.65
45	-13	i	1
46	5	i	1
47	-7	i	1
48	1	i	1.2

Gathered by group, the compounds so far containing a nitro group on carbon (3)
cpd	molecule	GALR2 agonist	RGS16-Gao HTS	Insulin prom inh	Insulin prom inh cell count
10	O=C(c1ccc([N+](=O)[O-])cc1)N1CCN(C(=O)c2cccs2)CC1	-1.5	101	-13	88
28	Cc1cc(=O)n(C)c(=O)n1CCCCOc1ccc([N+](=O)[O-])cc1	/	109	/	/
35	O=C(Nc1nnc(CSCc2ccccc2F)s1)c1cccc([N+](=O)[O-])c1	-2.2	65	7	77

cpd	PKD1 kinase inh	HSV replic up	HSV replic up primary fold
10	-10	i	1
28	3	i	0.98
35	3	i	0.94

Further structures follow:
cpd	molecule	GALR2 agonist	RGS16-Gao HTS	Insulin prom inh	Insulin prom inh cell count
49	Cn1cccc1CNC(=S)Nc1cc(F)cc(F)c1	/	103	/	/
50	COc1ccccc1CN(Cc1cc2cc(C)ccc2[nH]c1=O)Cc1nnnn1CC1CCCO1 (stereo unspecified)	0.2	99	27	77
51	O=C(Cc1cc(=O)oc2cc(O)ccc12)NCC1CCC(C(=O)O)CC1 (stereo unspecified)	8.9	103	-3	112
52	O=C(c1ccc(NC(=S)NCc2ccco2)cc1)N1CCCCC1	/	95	-29	94
53	CCN(C(=O)CSc1nnc(Cn2nnc3ccccc32)o1)c1nc(C)cs1	-2.0	206	50	134
54	C[C@@H](NC(=O)OC(C)(C)C)c1nnc(S(=O)(=O)Cc2ccccc2)o1	/	97	/	/
55	CC1SC(c2ccc(Cl)cc2)NC1=O (stereo unspecified)	-1.5	100	-444	93
56	CCOC(=O)C1=C(C)NC2=C(C(=O)CC(C)(C)C2)C1c1ccc2c(c1)CCCN2C (stereo unspecified)	1.0	108	-3	89
57	Cn1cccc1/C=N/n1c(-c2ccc(C(C)(C)C)cc2)n[nH]c1=S	-2.4	102	55	98
58	O=S(=O)(c1ccc(F)cc1)N1CCCN(c2nccc(C(F)(F)F)n2)CC1	/	98	/	/
59	COc1cccc(CC2(CO)CCCN(Cc3cn[nH]c3-c3ccc(F)cc3)C2)c1 (stereo unspecified)	/	93	/	/
60	CCOC(=O)NN1C(=O)c2ccccc2NC1c1ccc(N(C)C)cc1 (stereo unspecified)	0.2	104	-42	107

cpd	PKD1 kinase inh	HSV replic up	HSV replic up primary fold
49	-6	i	1.1
50	9	i	0.99
51	-4	i	0.93
52	-2	i	0.87
53	-3	/	/
54	/	i	0.98
55	-6	i	0.95
56	-4	i	0.92
57	3	i	0.7
58	/	i	1.1
59	-2	i	1
60	-12	i	1.1

Remaining list, next part
cpd	molecule	GALR2 agonist	RGS16-Gao HTS	Insulin prom inh	Insulin prom inh cell count
61	CC(=O)N1N=C(c2ccc(Br)cc2)OC1(C)CC(=O)Nc1ccccc1 (stereo unspecified)	-0.1	99	/	/
62	O=C1[C@H]2[C@@H](C(=O)N1c1cc(Cl)cc(Cl)c1)[C@]1(C(=O)Nc3ccccc31)N1CCC[C@@H]21	-2.4	102	0	82
63	COc1cc(C(=O)c2cocc2C(=O)c2ccc3c(c2)OCO3)cc(OC)c1OC	/	103	/	/
64	Cc1cc(Oc2cnn(C(C)(C)C)c(=O)c2Cl)cc(C(C)C)c1	-1.4	101	-45	77
65	O=C(C1CCN(c2nnc(-n3cccc3)s2)CC1)N1CCN(c2cccc(C(F)(F)F)c2)CC1	0.3	94	29	115
66	N#Cc1c(N2CCOCC2)nc(-c2ccco2)c2c1CCCC2	3.7	101	14	189
67	COc1ccc(OC)c(-c2cc(C(=O)NCc3cccs3)no2)c1	0.8	107	7	108
68	Cc1cc(C2=NNC(=NC3CC3)SC2)c(C)n1-c1ccccc1F	-0.7	91	19	120
69	O=P(c1ccccc1)(c1ccccc1)c1nc(-c2ccc(Cl)cc2)oc1N1CCOCC1	/	113	/	/
70	COc1ccc(Nc2nnc(SCC(=O)N3CC(=O)Nc4ccccc43)s2)cc1	/	103	/	/
71	O=C(CSc1nnc(-c2ccncc2)o1)Nc1ccccc1Cl	-3.1	250*[activator]	-32	155
72	COc1cc(-c2cc(=O)c3ccccc3o2)ccc1O	/	110	/	/

cpd	PKD1 kinase inh	HSV replic up	HSV replic up primary fold
61	-13	i	0.95
62	5	i	1.1
63	/	i	0.72
64	-1	i	1.2
65	-4	i	0.95
66	1	i	0.91
67	-3	i	0.79
68	-1	i	1
69	2	i	0.94
70	-4	i	0.91
71	-6	i	0.99
72	11	/	/

Next compounds.
cpd	molecule	GALR2 agonist	RGS16-Gao HTS	Insulin prom inh	Insulin prom inh cell count
73	Oc1ccccc1-c1cc(-c2ccco2)[nH]n1	-0.7	93	-17	185
74	Cc1cccc(C)c1NC(=O)C[N+](C)(C)CC(O)COc1cccc2ccccc12 (stereo unspecified)	/	102	/	/
75	CC(C)c1ccc(NC(=O)C(c2ccccc2)N2CCOCC2)cc1 (stereo unspecified)	/	101	/	/
76	O=C(Nc1cccc(Cl)c1)ON=C1c2ccccc2-c2ccccc21	-0.1	96	/	/
77	COc1ccccc1-c1nnc(NC(=O)C2=COCCO2)o1	-1.8	102	19	87

cpd	PKD1 kinase inh	HSV replic up	HSV replic up primary fold
73	4	i	0.89
74	-11	i	0.81
75	-8	i	0.88
76	43	i	1
77	2	i	0.97

As entered above.
RGS16-Gao HTS result of `COc1ccccc1-c1nnc(NC(=O)C2=COCCO2)o1` is entered as 102
RGS16-Gao HTS result of `Oc1ccccc1-c1cc(-c2ccco2)[nH]n1` is entered as 93
PKD1 kinase inh result of `O=C(Nc1cccc(Cl)c1)ON=C1c2ccccc2-c2ccccc21` is entered as 43

Screening results as filed in PubChem.
